NS1 inh: qHTS Assay for Inhibitors of Influenza NS1 Protein Function. S. cerevisiae slowed by influenza A NS1, growth recovery by OD600. Potency, µM (series often up to 46.1 µM), without a hit: at the highest dose activity, positive = more growth. 270,000 tested, 0.4% active. AID 2326, 2010; further: actives are rising curves; nearly all actives have a fitted effect of over 50% in size
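Recovery from NS1-induced slow growth read by OD600 in budding yeast switched to galactose assay medium (pH 6.0, -URA) at 1:100 dilution. Compound 23 nl per well; the matching strain lacking NS1 serves as control.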
SARS PLpro yeast: qHTS of Yeast-based Assay for SARS-CoV PLP. S. cerevisiae expressing SARS-CoV PLpro, growth rescue; control for the full effect not named in the record. Potency, µM (series often up to 32.9 µM), inactives show top-dose activity, positive = growth rescue. 330,000 tested, 0.19% active; further: 0% is about no effect; nearly all actives have a fitted effect of over 55% in size; growth read by luminescence after 48 h
2A StopGo: High Throughput Screening for Foot and Mouth Disease Virus Antivirals. 410,000 tested, 1.2% active. human cells with a luciferase reporter of 2A StopGo recoding; control for the full effect not named in the record. Potency, µM (doses to about 57.9 µM), for inactives: at the top dose signal change, negative = less light; active = well fitted falling curve with a large enough effect; inconclusive = small, poorly fitted or top-dose-only effect; inactive = no such curve, though single readings can be large or run the other way; tested in HEK293T cells; further: on the % scale 0 is the no-effect control and ±100 the full control effect; nearly all actives have a fitted effect of over 45% in size; luciferase light after 4 h
Cruzain Triton: qHTS Assay for Promiscuous and Specific Inhibitors of Cruzain (with detergent); Cruzipain (Trypanosoma cruzi), P25779; purified cruzain, Z-FR-AMC fluorescence, 0.01% Triton; Potency, µM, for inactives: max response, negative = inhibition, actives largely listed as inhibitors; 200,000 tested, 0.43% active; AID 1478, 2009; active means well fitted curve in the direction sought with a large enough effect; inconclusive means small, poorly fitted or top-dose-only effect, or another doubt; inactive means no such curve, though single readings can be large; an effect the other way counts as inactive or inconclusive;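 further: plate controls were neutral wells for no effect and buffer without enzyme for full effect; nearly all actives have a fitted effect of over 40% in size; top concentration of the series not given in the record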
Target sequence (P25779 123-467 limits assumed): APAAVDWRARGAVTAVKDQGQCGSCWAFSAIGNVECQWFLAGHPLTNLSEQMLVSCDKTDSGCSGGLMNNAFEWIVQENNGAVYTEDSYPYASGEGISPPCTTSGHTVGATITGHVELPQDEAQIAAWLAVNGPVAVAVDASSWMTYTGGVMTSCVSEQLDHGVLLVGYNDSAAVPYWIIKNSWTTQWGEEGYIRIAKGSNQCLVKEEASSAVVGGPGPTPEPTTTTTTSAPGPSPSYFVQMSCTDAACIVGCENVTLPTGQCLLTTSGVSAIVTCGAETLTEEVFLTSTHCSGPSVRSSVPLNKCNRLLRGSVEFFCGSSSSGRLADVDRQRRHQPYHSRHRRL
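Sodium acetate buffer (100 mM, pH 5.5) containing 5 mM DTT and 0.01% Triton X-100 hosted 1.5 nM cruzain and test compound for 15 min at room temperature. Cleavage of 2 uM Z-FR-AMC was then tracked by fluorescence.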
Cruzain noTriton: qHTS Assay for Promiscuous and Specific Inhibitors of Cruzain (without detergent); AID 1476, 2009; purified cruzain, Z-FR-AMC fluorescence, no detergent; Cruzipain (Trypanosoma cruzi), P25779; 200,000 tested, 2.3% active; Potency, µM, for inactives: max response, negative = inhibition, hits mostly inhibitors; active means well fitted curve in the direction sought with a large enough effect; inconclusive means small, poorly fitted or top-dose-only effect, or another doubt; inactive means no such curve, though single readings can be large; an effect the other way counts as inactive or inconclusive;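 further: plate controls were enzyme without inhibitor for no effect and buffer without enzyme for full effect; nearly all actives have a fitted effect of over 40% in size; top concentration of the series not given in the record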
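Purified cruzain at 1.5 nM, pre-incubated 15 min with compound at room temperature in 100 mM sodium acetate pH 5.5, 5 mM DTT, 0.00005% Triton X-100. Reaction started with 2 uM Z-FR-AMC; AMC fluorescence increase over 60 s gives rate.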
RE007 growth inh: qHTS Assay for Inhibitors of the HIV-1 protein Vpr. S. pombe RE007 Vpr strain, BacTiter-Glo ATP luminescence, 24 h; control for the full effect not named in the record. Potency, µM (series often up to 92.2 µM), for inactives: at the top dose activity change, negative = less growth. 360,000 tested, 0.21% active. AID 651644, 2012; active = well fitted falling curve with a large enough effect; inconclusive = small, poorly fitted or top-dose-only effect; inactive = no such curve, though single readings can be large or run the other way;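 further: on the % scale 0 is the no-effect control and ±100 the full control effect; nearly all actives have a fitted effect of over 50% in size; the assay follows cell death caused by Vpr and the record does not say whether a fall means rescue or toxicity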
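Fission yeast strain RE007, carrying one chromosomally integrated HIV-1 vpr copy, was seeded at OD 0.01 in PMG+AL medium with 23 nL pinned compound. After 24 h at 30 °C and 99% humidity, viability was read by BacTiter-Glo luminescence.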
Lassa entry inh: qHTS for Inhibitors of binding or entry into cells for Lassa Virus | Lassa virus pseudotype entry inhibition, cell reporter; control for the full effect not named in the record | Potency, µM (titrated, usually from 37.9 µM), for the others: at the top dose activity change, negative = inhibition, actives largely listed as inhibitors | 300,000 tested, 1.2% active | AID 540256, 2011; active means well fitted inhibition curve with a large enough effect; inconclusive means small, poorly fitted or top-dose-only effect, or effect the other way; inactive means flat fitted curve, though single readings scatter; tested in HEK293 cells; further: on the % scale 0 is the no-effect control and ±100 the full control effect; nearly all actives have a fitted effect of over 50% in size; luciferase read-out
MARV entry inh: qHTS for inhibitors of binding or entry into cells for Marburg Virus; Marburg virus pseudotyped entry inhibition, cell reporter; control for the full effect not named in the record; about a third of the inactives were read at about 46 µM; Potency, µM (doses to about 37.8 µM), for inactives: at the highest dose activity change, negative = inhibition, hits mostly inhibitors; 300,000 tested, 1.8% active; active = well fitted inhibition curve with a large enough effect; inconclusive = small, poorly fitted or top-dose-only effect, or effect the other way; inactive = flat fitted curve, though single readings scatter; tested in HEK293 cells; about a fifth of its hits are not listed in these tables; further: on the % scale 0 is the no-effect control and ±100 the full control effect; luciferase read-out
Numbers without * were called inactive; ? = inconclusive; nt = not tested or not shown; & = joins results of further samples; [ ] = dose if it differs, or a comment. Unless noted, the call rests on the fitted dose curve; in most records, active means well fitted rising curve with a large enough effect; inconclusive means small, poorly fitted or top-dose-only effect; inactive means no such curve, though single readings can be large or run the other way. Potency means the concentration at half of the fitted maximal effect.

SMILES | NS1 inh | SARS PLpro yeast | 2A StopGo | Cruzain Triton | Cruzain noTriton | RE007 growth inh | Lassa entry inh | MARV entry inh
O=C(COC(=O)c1nc(Cl)ccc1Cl)Nc1ccccc1OC(F)F | nt | 3% | -15% | nt | nt | 9% | -1% | 13%
COc1ccc(CNC(=O)c2ccc3nc(C(C)C)oc3c2)cc1OC | nt | nt | -23% | -1.8% | 5% | nt | -25%[46.1 µM] | nt
CN(C)C(CNC(=O)c1ccc(C(=O)c2ccccc2)cc1)c1ccccc1 (stereo not drawn) | 8% | 0% | 14% | nt | nt | 42% | -27%[46.1 µM] | ?
CCS(=O)(=O)c1ccc(O)c(NC(=O)c2cc(OC)c(OC)c(OC)c2)c1 | 5% | -1% | -2% | 3.3% | 9% | -2% | -2% | 11%
CN(C)c1ccc(C2NCCS2)cc1 (stereo not drawn) | -36% | -1% | 14% | -0.5% | -7% | -16% | -21% | -10%
Cc1ccc(-n2nc3c(=O)n(CC(=O)NCC(C)c4ccccc4)nc(C)c3c2C)cc1 (stereo not drawn) | nt | nt | ? | -0.7% | -1% | nt | -16%[46.1 µM] | nt
CC1(C)CC(=O)C2=C(C1)NC(=O)NC2c1ccc([N+](=O)[O-])cc1 (stereo not drawn) | 9% | -2% | -7% | nt | nt | -8% | 13% | 8%[46.1 µM]
CCOC(=O)c1c(C)n(Cc2ccco2)c2c1cc(O)c1ccccc12 | 9% | 5% | -4% | -1.8% | 25µM* | 25% | -1% | -27%
O=C(c1ccccc1Cl)N1CCC(c2nc3c(nnn3Cc3ccco3)c(=O)[nH]2)CC1 | -5% | 8% | -21% | -2.4% | 11% | 13% | nt | nt
CCc1ccc(N(C(=O)c2csnn2)C(C(=O)NCc2ccccc2)c2ccco2)cc1 (stereo not drawn) | 8% | 9% | 8% | -0.8% | -7% | 17% | -25% | ?
CC(NC(=O)c1ccccc1Cl)C(=O)O (stereo not drawn) | 3% | 14% | nt | -4.6% | 7% | 7% | 3% | 11%
Cc1ccc2onc(CC(=O)N3CCN(c4cccc(C)c4C)CC3)c2c1 | nt | nt | -23% | 0.2% | 5% | nt | 15%[46.1 µM] | nt
CCOc1cccc(C(=O)NC(=S)Nc2ccc(Cl)cc2C(=O)O)c1 | nt | 1% | -17% | nt | nt | -23% | -14% | -17%[14.2 µM]
O=c1oc(-c2ccccc2NS(=O)(=O)c2ccc(Cl)cc2)nc2ccccc12 | -2% | 0% | 1% | nt | nt | 17% | ? | -41%
Cc1ccc(Sc2ccc(N3CCCC(C(=O)Nc4ccc(F)cc4F)C3)nn2)cc1 (stereo not drawn) | nt | nt | -14% | -3.1% | 0% | nt | 0.89µM* | ?
c1ccc2c(c1)cc1ccc3cccc4ccc2c1c34 | nt | nt | 23% | nt | nt | -26% | 5% | 2%
CCCN1CCN(C(=O)Cn2c(=O)oc3cc(S(=O)(=O)NCc4ccccc4)ccc32)CC1 | 2% | -16% | -21% | -0.4% | -3% | 4% | -3% | 6%&6%
Cc1ccc(C(=O)CSc2nc(O)cc(=O)[nH]2)cc1C | 7.9µM* | 10% | -3% | nt | nt | -5% | nt | nt
COCCCNC(=O)CSc1nc2ccccc2c(=O)n1CCCC(=O)NCC1CCCO1 (stereo not drawn) | -8% | -7% | -5% | -3.2% | -2% | 20% | 4% | ?
COC(=O)c1cc2occc2n1Cc1c(F)cccc1Cl | -26% | 17% | nt | -4.4% | -9% | nt | nt | 0%
CC(C)(C)c1ccc(C(=O)Nc2ccc(S(=O)(=O)Nc3cnc4ccccc4n3)cc2)cc1 | 6% | 0% | 2% | nt | nt | -9% | -8% | ?
c1ccc(-c2c(-c3ccccc3)n(Cc3ccco3)c3ncnc(NCCCn4ccnc4)c23)cc1 | -101% | -39% | ? | -6.6% | 6% | 23% | ? | ?
Cc1ccc(C)c(N2CC(=O)N(c3cc(C)ccc3C)CC2=O)c1 | 2% | ? | 22% | 2.1% | 4% | 0% | 3% | -16%
COn1c(-c2ccc(Cl)cc2)nc2ccc(Cl)cc21 | -100% | -20% | 3% | -5.9% | -4% | -29% | 9% | ?
CCOC(=O)c1ccccc1NC(=O)CN1CCCN(Cc2cccc(Cl)c2)S1(=O)=O | nt | nt | -10% | -6.5% | -2% | nt | ? | nt
O=C(CCCOc1ccccc1)N1CCN(S(=O)(=O)c2ccc(Cl)cc2)CC1 | nt | nt | -13% | nt | nt | 11% | -22% | -9%
CN(CCCC1CCCC1)C(=O)c1cc(COc2c(F)cccc2F)on1 | -1% | -4% | -19% | nt | nt | -7% | ? | 1%
O=C(Cc1ccc([N+](=O)[O-])cc1)NCc1ccccc1Cl | 12% | 7% | -4% | -4.1% | -14% | -3% | -2% | 28%
O=C1CCCN1C(=O)CSc1ccc2ccccc2n1 | nt | 4% | 44%[activator] | nt | nt | 14% | 17% | 6%
Cc1cccc(N2CCN(c3ncnc4onc(C)c34)CC2C)c1 (stereo not drawn) | nt | nt | 3.2µM* | -3.7% | -1% | nt | ? | nt
COc1cccc(C(=O)NNC(=O)c2sccc2-n2cccc2)c1 | 0% | -1% | -16% | nt | nt | 14% | nt | nt
COC(=O)Cn1cc(C=C2C(=O)NC(=O)NC2=O)c2ccccc21 | 11% | 1% | -16% | nt | nt | 11% | -10%[46.1 µM] | -14%[46.1 µM]
CCOc1ccc(NC(=O)c2ccc(-c3nc(COc4ccccc4)c(C)o3)cc2)cc1 | nt | nt | -21% | -1.5% | 4% | nt | ? | nt
Cc1ccc(N=C2C(=S)N(c3ccc(C)cc3)C(=N)N2/N=C/c2ccc(Cl)cc2)cc1 | 6% | 11µM* | 85%[activator] | -4.4% | 3.2µM* | -14% | ? | ?
Cc1cc(C)cc(OCC(=O)N(C)CC(=O)Nc2ccc(N3CCOCC3)cc2)c1 | nt | -2% | -17% | nt | nt | 6% | -19% | -26%
CC(C)(C)C(=O)CSc1ncnc2c1cnn2Cc1ccccc1 | -2% | 1% | -11% | nt | nt | -16% | -27%[46.1 µM] | 14%[46.1 µM]
Fc1ccc(NC(=S)NCc2ccccn2)cc1 | -16% | 3% | 24% | 2.1% | 6% | -12% | 11% | ?
O=C(c1ccc(C(F)(F)F)cc1)C1CCCN(C(=O)CN2CCCC2=O)C1 (stereo not drawn) | 3% | -3% | 0% | nt | nt | 4% | 5% | -1%[46.1 µM]
O=C(CCn1nnc2ccccc21)Nc1nnc(Cc2ccccc2)s1 | -34% | 1% | -20% | 0.1% | -14% | 6% | 5% | 1%
O=C(C[n+]1cccc(Br)c1)c1cccs1 | 25% | 6% | -1% | nt | nt | -17% | nt | nt
COC(=O)c1c(-c2c(Cl)cccc2Cl)noc1C(=O)NN | 7% | 0% | 7% | nt | nt | -3% | ? | ?
Cc1cc(C)c2c(-n3cccc3)nn(C)c2n1 | 1% | -3% | -13% | 5.6% | -6% | -3% | -18% | 5%[46.1 µM]
CCN(CC)S(=O)(=O)c1ccc(N2CCCC2)c(C(=O)OCC(=O)/C(C#N)=C(\C)N)c1 | -3% | -1% | 36%[activator] | -8.0% | ? | -13% | ? | 13%&13%
O=C(/C=C/c1ccccc1)NCCc1nc2ccccc2[nH]1 | 1% | 0% | -1% | nt | nt | -15% | 3% | -9%[46.1 µM]
COc1ccc(CCN2CNc3c(c(=O)n(C)c(=O)n3C)C2)cc1OC | 1% | -3% | -3% | 5.6% | -3% | -3% | 8% | 1%
CCCCn1c(N)c(N(CC)C(=O)c2cc3c(s2)CCCCC3)c(=O)[nH]c1=O | nt | -2% | -3% | nt | nt | -22% | -4% | 0%
Cc1occc1C(=O)NNC(=O)c1ccccc1[N+](=O)[O-] | 4% | -1% | -15% | nt | nt | -1% | 29%[46.1 µM] | 1%[46.1 µM]
Cc1ccnc(N2C(=O)c3ccccc3C2O)c1 (stereo not drawn) | -9% | -8% | 4% | 1.6% | ? | ? | nt | nt
Cc1cccc2sc(N(CCN(C)C)C(=O)c3ccc4c(c3)OCCO4)nc12 | nt | nt | -2% | -2.2% | -26% | nt | 2%[46.1 µM] | nt
Cc1c(CN(C)C(=O)c2nn(C)cc2[N+](=O)[O-])cnn1C | -1% | 8% | -14% | 0.0% | 25% | 9% | 3% | 33%
(list continues)
SMILES | NS1 inh | SARS PLpro yeast | 2A StopGo | Cruzain Triton | Cruzain noTriton | RE007 growth inh | Lassa entry inh | MARV entry inh
CCOC(=O)C1(CC)NC(c2ccco2)C2C(=O)N(C)C(=O)C21 (stereo not drawn) | 3% | 19% | -8% | 0.1% | -4% | 17% | 11% | 0%
CCc1nnc(N/N=C/c2c(F)cccc2Cl)n1N | -23% | -6% | 7% | nt | nt | -13% | nt | nt
CN(CC(=O)Nc1ccccc1C(F)(F)F)C(=O)CCc1nc2sc3c(c2c(=O)[nH]1)CCCC3 | 14% | -1% | -9% | nt | nt | 4% | 8% | -5%
CCC(C(=O)NC1CCCCC1)N(CC1CCCO1)C(=O)CNS(=O)(=O)c1ccc(OC)cc1 (stereo not drawn) | -2% | 8% | 12% | -0.6% | 13% | 24% | -5% | -2%[46.1 µM]
COc1ccc(CCC(=O)Nc2cc(Cl)ccc2OC)cc1 | -76% | -9% | nt | -4.9% | 1% | -25% | ? | -22%
CNC(=O)c1ccc(NC(=O)CC23CC4CC(CC(C4)C2)C3)cc1 | -1% | 0% | -26% | nt | nt | -11% | ? | 1%[46.1 µM]
CCOc1ccc(NC(=O)COC(=O)c2cc([N+](=O)[O-])ccc2N2CCOCC2)cc1 | nt | nt | -24% | nt | nt | -6% | -9% | ?
CCOC(=O)c1ccc(N=c2sc(C(=O)OC)cc(=O)n2Cc2ccc3c(c2)OCO3)cc1 | 4% | 8% | ? | 2.7% | -23% | -13% | nt | -1%

Hits appear at their usual frequency, and some 4.6% of all compounds hit somewhere here.
